TRPML1 agonist: agonists of human TRPML1 channel; TRPML1-expressing cells, Ca2+ dye fluorescence, FDSS; host cell line not named in the record; reference of the full effect not given here; Q9GZU1; activation, % (concentration not given with the values); 410,000 compounds, 0.12% hits; in the data active = activation above about 50%; inconclusive = about 30% to 50%; inactive = below about 30%; further: 0% is about no effect; the text of the record puts the active cut at 80%
Target sequence (Q9GZU1 whole entry, looked up): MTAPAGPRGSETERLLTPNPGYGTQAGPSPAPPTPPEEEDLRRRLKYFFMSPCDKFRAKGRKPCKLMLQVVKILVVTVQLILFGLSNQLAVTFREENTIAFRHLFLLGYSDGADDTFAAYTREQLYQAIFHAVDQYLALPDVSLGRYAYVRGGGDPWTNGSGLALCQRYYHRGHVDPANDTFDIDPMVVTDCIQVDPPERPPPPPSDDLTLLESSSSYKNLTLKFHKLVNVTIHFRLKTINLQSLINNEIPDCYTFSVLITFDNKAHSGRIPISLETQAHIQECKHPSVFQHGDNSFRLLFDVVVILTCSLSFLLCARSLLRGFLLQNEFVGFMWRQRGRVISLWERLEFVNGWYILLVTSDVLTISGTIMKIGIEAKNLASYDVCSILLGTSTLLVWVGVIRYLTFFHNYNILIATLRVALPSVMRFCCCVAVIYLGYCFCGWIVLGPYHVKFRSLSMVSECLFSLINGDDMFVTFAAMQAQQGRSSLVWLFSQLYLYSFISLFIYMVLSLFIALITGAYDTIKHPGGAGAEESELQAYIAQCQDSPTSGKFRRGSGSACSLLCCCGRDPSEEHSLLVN
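In this qHTS format, compounds were pin-transferred onto Ca8-dye-loaded TRPML1-DL cells induced with Tet overnight, and intracellular Ca2+ fluorescence was recorded kinetically for 110 s after a 10 s baseline. A subsequent 4uM final 54-4 (EC80) addition followed by a second 110 s read served as the antagonist phase.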
TRPML1 blocker: inhibitors of human TRPML1 channel | activity change, negative = inhibition, % (no concentration beside the values) | 390,000 compounds, 0.02% hits | AID 624415 | TRPML1-inducible cells, Ca2+ dye fluorescence, FDSS; hits give low values; inhibition of EC80 agonist-evoked calcium signal | Q9GZU1; in the data active means activity change below about -50%; inconclusive means about -30% to -50%; inactive means above about -30%;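 further: stimulus is agonist 54-4 at its EC80 concentration; on the % scale 0 is the no-effect control and ±100 the full control effect; compound concentration not given in the record; the text of the record puts the active cut at -80%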
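Tet-induced TRPML1-DL cells loaded with Ca8 no-wash calcium dye were read kinetically on FDSS. Compound addition was followed by EC80 agonist 54-4 (4 uM final); inhibition was read over 110 s.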
D2 agonist: human D2 receptor agonism in beta-arrestin assay. DiscoveRx PathHunter D2 beta-arrestin, luminescence, 90 min; 100% = 57 uM dopamine signal. activation, % (no concentration beside the values). 360,000 compounds, 0.084% hits; in the data active = activation above about 40%; inconclusive = about 15% to 40%; inactive = below about 15%; further: compound concentration not given in the record; the text of the record calls up to 30% inactive
Target sequence (P14416 whole entry, looked up): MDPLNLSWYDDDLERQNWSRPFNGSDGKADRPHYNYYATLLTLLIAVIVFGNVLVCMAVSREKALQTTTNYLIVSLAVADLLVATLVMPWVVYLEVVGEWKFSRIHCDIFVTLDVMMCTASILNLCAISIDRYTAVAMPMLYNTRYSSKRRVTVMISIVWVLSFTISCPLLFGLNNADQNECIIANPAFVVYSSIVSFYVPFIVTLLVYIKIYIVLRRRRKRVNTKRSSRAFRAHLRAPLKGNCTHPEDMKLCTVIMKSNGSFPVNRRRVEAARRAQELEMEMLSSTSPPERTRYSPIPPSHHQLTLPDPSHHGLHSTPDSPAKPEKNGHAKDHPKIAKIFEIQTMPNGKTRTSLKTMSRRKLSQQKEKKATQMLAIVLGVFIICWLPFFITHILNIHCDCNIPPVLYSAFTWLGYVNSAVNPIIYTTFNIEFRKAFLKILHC
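DiscoveRx PathHunter D2 beta-arrestin cells (2,100/well) attached overnight, then compound-stimulated 90 min at 37 C in HBSS/10 mM HEPES/0.1% Tween-20 buffer; beta-galactosidase complementation read by luminescence after 1 h at ambient temperature. Dopamine 57 uM final (EC100) as control.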
Six1-Eya2 blk: Six1/Eya2 interaction inhibition; Q15475+O00167; AlphaScreen GST-Six1/His-Eya2 binding, biochemical; hits give low values; control for the full effect not named in the record; activity change, % (concentration not given with the values); 360,000 compounds, 0.56% hits; in the data active = activity change below about -65%; inconclusive = about -30% to -65%; inactive = above about -30%; further: on the % scale 0 is the no-effect control and ±100 the full control effect
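Homogeneous AlphaScreen proximity assay pairing GST-Six1 with His-tagged Eya2 (added as 5X mix: 250 nM and 500 nM) in 50 mM Tris pH 8.0, 300 mM NaCl, 1 mM TCEP. Glutathione donor and nickel acceptor beads; 1 h, 37 °C, dark.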
PINK1 modulator: changes PINK1 expression; PINK1 immunofluorescence, high-content cytometry, 24 h; Potency, µM (highest dose often 76.6 µM), without a hit: top-dose activation (PINK1 increase), usual class: activators; 410,000 compounds, 0.2% hits; AID 624263; active = well fitted activation curve with a large enough effect; inconclusive = small, poorly fitted or top-dose-only effect; inactive = flat fitted curve, though single readings scatter; cell line not stated here;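 further: potency means the concentration at half of the fitted maximal effect; % of control where 0% means no effect; nearly all actives have a fitted effect of over 65% in size; a mitochondrial uncoupler was the plate control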
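Measures PINK1 amount and localization on or inside mitochondria by immunofluorescence. Stable cells get compounds at 5 concentrations for 24 hours before fixation and staining; CCCP controls included.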
CtBP-E1A inh: CtBP/E1A binding inhibition; 340,000 compounds, 0.49% hits; activity change, % (concentration not given with the values); AID 651724; AlphaScreen GST-E1A/His-CtBP binding, 1536-well; hits give low values; control for the full effect not named in the record; in the data active means activity change below about -65%; inconclusive means about -30% to -65%; inactive means above about -30%; further: on the % scale 0 is the no-effect control and ±100 the full control effect
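Steps: dispense buffer (Tris pH 8.0, NaCl 300 mM, TCEP 1 mM, BSA, Tween 20); add 5X protein mix (GST-E1A, His-CtBP, 125 nM each); pin 23 nL compound; 2 h at 37 °C, dark; add 5X beads (50 ug/mL); 1 h; read.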
The depositor's hits bear a star; ? = inconclusive; · = not tested or not shown; & = joins results of further samples; [ ] = another dose, or the depositor's remark.

SMILES | TRPML1 agonist | TRPML1 blocker | D2 agonist | Six1-Eya2 blk | PINK1 modulator | CtBP-E1A inh
CC(=O)c1cccc(NC(=O)N2C3CCC2CC(O)(c2cccnc2)C3)c1 (centres undefined) | -0.2 | 7 | -5.1 | 3 | 0.7% | 8
Cc1onc(-c2ccccc2)c1C(=O)Nc1ccc(S(=O)(=O)N2CCCCC2)cc1 | 0.5 | 7 | -2.2 | 1 | 2.9% | 2
O=C(Nc1nccs1)c1ccc(Br)cc1 | 1.1 | -9 | 0.0 | -2 | 5.7% | 3
O=[N+]([O-])c1ccc(-c2cn3c(n2)CCC3)cc1 | -0.8 | 34 | -3.9 | -7 | 0.3% | ·
Cc1cccc(C(=O)Nc2nc3nc(-c4ccccc4)cc(=O)n3[nH]2)c1 | 1.8 | -1 | · | · | 0.4% | ·
CC(C)(C)NS(=O)(=O)c1ccc(CCC(=O)NCc2ccco2)cc1 | 0.2 | -2 | 1.4 | 7 | -1.6% | -4
CCCCC(=O)NCCc1ccc(OC)cc1 | -0.2 | 2 | -4.3 | -1 | -0.1% | 2
O=C(CSc1nc2cccc(F)c2c(=O)n1-c1ccccc1)Nc1ccc2c(c1)CCC2 | 0.2 | -11 | 0.5 | -1 | 1.3% | 8
O=C(O)c1ccc(Nc2nc(-c3cccnc3)cs2)cc1O | 0.0 | 9 | -2.2 | 6 | -0.6% | ·
Cn1ccnc1SCC(=O)Nc1ccc2c(c1)COC2=O | -0.6 | -19 | -0.4 | 5 | 5.1% | -7
O=C(Oc1cccc(Nc2ncnc3ccccc23)c1)c1ccccc1Cl | 1.6 | 35 | 0.8 | -2 | 1.1% | -2
CCS(=O)(=O)N1CCN(c2ccc(S(=O)(=O)N3CCOCC3)cc2)CC1 | 2.0 | 3 | 1.8 | 3 | -1.5% | 12
Cc1ccc(-c2nc(Cn3c(=O)cc(-c4ccccc4)c4c(C)nn(C)c43)c(C)o2)cc1 | 0.6 | -13 | · | · | 1.2% | ·
O=C(CN1CCN(Cc2ccccc2)CC1)Nc1ccc(Cl)cc1 | 0.1 | -7 | -5.0 | 2 | 0.7% | ·
CC1CCN(CC(=O)c2cccs2)CC1 | -0.6 | 25 | -3.6 | 13 | 0.6% | -10
COc1ccc(S(=O)(=O)NNC(=O)c2cc3cc4ccccc4nc3s2)cc1 | 3.1 | -11 | 0.4 | -16 | -1.0% | -29
COc1cc2cc(CCOC(=O)c3ccc(C#N)cc3)oc(=O)c2cc1OC | 1.0 | 1 | -0.4 | -12 | 3.6% | -12
CSc1ccccc1OCc1cc(C(=O)NC(C)Cn2cncn2)no1 (centres undefined) | -0.4 | 1 | 1.7 | -1 | 3.3% | -6
Cc1ccc(S(=O)(=O)NCC(=O)OCC(=O)N2CC(C)OC(C)C2)cc1 (centres undefined) | -0.2 | 3 | -1.1 | -4 | 1.7% | 6
Cn1cc(/C=N/NC(=O)c2ccc(C#N)cc2F)c2ccccc21 | 0.2 | 13 | -3.9 | -3 | -2.6% | 4
O=C1COc2cc(S(=O)(=O)CCC(=O)N3CCN(c4cccc(Cl)c4)CC3)c(Cl)cc2N1 | 1.2 | -3 | · | · | -0.4% | ·
O=C(Nc1cccc2ncccc12)c1ccc([N+](=O)[O-])o1 | 1.3 | 1 | 13 | -2 | 6.8% | 1
COc1ccc(OC)c(NC(=O)Cn2cc(C#N)c3ccccc32)c1 | 0.2 | -6 | -5.0 | -1 | · | 8
O=C(Nc1ccc(Cl)cc1)c1cc2nc(-c3ccc4c(c3)OCO4)cc(C(F)(F)F)n2n1 | -0.4 | -3 | · | · | 4.2% | ·
Cc1ccc(O)c(C(CC(=O)NC(C)C)c2ccccc2)c1 (centres undefined) | 0.7 | -26 | 4.6 | 1 | -0.5% | 0
Cc1cc(N2CCN(Cc3nc(-c4ccc(F)cc4)oc3C)CC2)cc(C)n1 | -0.3 | 11 | -2.6 | -2 | 1.0% | ·
COc1ccc(S(=O)(=O)N2CCC(Oc3cccc(C(F)(F)F)c3)CC2)cc1OC | 3.0 | 19 | · | · | -1.1% | ·
CCNC(=S)NNC(=O)Cc1ccccc1 | 0.5 | 6 | -2.6 | 14 | 0.5% | -7
Cc1ccccc1CC1(CO)CCCN(C(=O)c2ccccc2N(C)C)C1 (centres undefined) | -0.4 | 31 | -2.6 | -2 | 0.3% | 0
COC(=O)C1CCN(C(=O)N2CCOCC2)CC1 | 0.4 | 2 | 0.7 | 3 | 1.7%[38.3 µM] | 9
C=CCn1sc(=N)c(C#N)c1N | 0.5 | 26 | -0.1 | -1 | 1.6%[38.3 µM] | -2
CC(C)c1nc(SCc2c(F)cccc2Cl)c2c(=O)n(C)c(=O)n(C)c2n1 | 1.0 | -6 | -2.3 | 2 | 16% | 8
CCOc1ccc(C(=O)Nc2ccc(CN3CCOCC3)cc2)cc1Cl | 0.2 | -3 | -2.1 | -6 | 0.4% | 5
O=C(CN1C(=O)S/C(=C\c2cccs2)C1=O)Nc1ccc(O)cc1C(=O)O | 0.4 | 75 | 9.0 | -19 | 0.2% | 0
COc1cc(C(=O)OCC(C)=O)c([N+](=O)[O-])cc1OC | -0.4 | 2 | -1.7 | 15 | 2.5% | -9
CC(=O)Nc1ccc(CN(C)c2c(C)nc3ccc(C(=O)N4CCN(C(C)=O)CC4)cn23)cc1 | -0.5 | · | 3.0 | 2 | -1.0% | 5
CC1CC(C)CN(C(=O)C(Cc2ccccc2)NC(=O)c2ccccc2)C1 (centres undefined) | 1.3 | 7 | -2.2 | 5 | 4.5% | 0
Cc1ccc(CO/N=C/c2c(O)cc(C)oc2=O)cc1 | 0.1 | 7 | -1.0 | 4 | 3.8% | 3
CC(C)N(CCc1ccncc1)C(=O)Nc1ccc(Cl)c(Cl)c1 | -0.5 | 13 | -1.5 | -24 | 2.2% | -13
NC1=NC(=Nc2ccc(Cl)cc2)c2ccccc21 | 1.3 | 44 | -1.5 | -1 | 0.4% | 7

Other results follow:
Order of results: TRPML1 agonist	TRPML1 blocker	D2 agonist	Six1-Eya2 blk	PINK1 modulator	CtBP-E1A inh
O=c1nc2ccccn2c2ccc(S(=O)(=O)N3CCCCC3)cc12
    -0.5	6	-2.3	-16	1.5%	-19
N#Cc1c[nH]n2c(=O)c3c(nc12)CCC3
    0.4	19	-2.2	6	0.7%	-8
CC(C)c1nnc(NC(=O)c2nc(S(=O)(=O)Cc3ccccc3)ncc2Cl)s1
    1.2&0.3	9&-11	-3.1	-17	-1.0%&-1.1%	1
Nc1nsc2ccccc12
    0.2	-2	-7.5	-2	·	-9
COc1ccc(CCNC(=O)CCCCCNC(=O)N2CCn3c2nc2ccccc23)cc1OC
    0.2	-9	-0.7	0	-0.9%	-5
FC(F)(F)Oc1ccc(NC(=S)Nc2ccccc2N2CCOCC2)cc1
    -0.1	17	-3.2	5	?	-3
NS(=O)(=O)c1ccc(NC(=S)NCc2ccc(Cl)cc2)cc1
    0.4	21	-0.3	-3	-0.2%	-1
CC(=O)N1CC(C)Oc2ccc(S(=O)(=O)Nc3ccc(Cl)cn3)cc21 (centres undefined)
    1.4	8	-2.2	5	0.1%	5
CCOC(=O)C(C)Sc1nc2c([nH]c3ccccc32)c(=O)n1C (centres undefined)
    -0.3	-22	0.6	-3	4.2%[38.3 µM]	3
CCCCC(=O)Nc1ccc2c(c1)nc(CN1CCN(C(=O)OCC)CC1)n2C
    -0.5	-2	-0.9	5	7.1%	0

Random excerpt: three compounds from above
Order of results: TRPML1 agonist	TRPML1 blocker	D2 agonist	Six1-Eya2 blk	PINK1 modulator	CtBP-E1A inh
O=C(Oc1cccc(Nc2ncnc3ccccc23)c1)c1ccccc1Cl
    1.6	35	0.8	-2	1.1%	-2
O=C(Nc1nccs1)c1ccc(Br)cc1
    1.1	-9	0.0	-2	5.7%	3
Cc1ccc(-c2nc(Cn3c(=O)cc(-c4ccccc4)c4c(C)nn(C)c43)c(C)o2)cc1
    0.6	-13	·	·	1.2%	·

(more compounds)
Order of results: TRPML1 agonist	TRPML1 blocker	D2 agonist	Six1-Eya2 blk	PINK1 modulator	CtBP-E1A inh
Cc1ccc(NC(C#N)c2ccccc2OCc2ccccc2)cc1 (centres undefined)
    -0.7	18	-2.5	6	12%	2
CCc1ccc(NC(=O)CSc2ccc(-c3cccnc3)nn2)cc1
    0.5	?	-3.4	-4	0.5%	-2
COc1cccc(CNc2nc3cc(-c4cccc(Cl)c4)sc3c(=O)n2C)c1OC
    -0.3	·	1.9	4	0.8%	1
CCOC(=O)N1CCN(c2cc(=O)n(-c3ccccc3Cl)c(=O)[nH]2)CC1
    0.1	-9	-1.9	9	1.6%	0
O=C1N(Cc2cccnc2)C[C@@H]2C[C@@H](c3ccc(C(F)(F)F)cc3)N3CCC[C@@]123
    1.0	8	-4.3	-1	1.0%	10
CCn1c(C)[n+](CC)c2ccc(S(=O)(=O)NC)cc21
    1.0	12	1.1	10	-0.6%	5
Cc1nnc(NC(=O)c2ccc(C)c(S(=O)(=O)N3CCCCCC3)c2)s1
    0.5	33	-0.1	-1	0.3%	-9
Cc1ccc(C(=O)C2CCN(S(=O)(=O)c3ccccc3C(=O)O)CC2)cc1
    0.8	2	-19	-1	-1.2%	-11
Cc1cc2cc(C)c3nnc(SCC(=O)Nc4ccc(S(=O)(=O)N5CCCCC5)cc4)n3c2cc1C
    0.8	-3	-0.7	0	-0.7%	-4
NNC(=O)CSc1nc(-c2ccccc2)nc2c1CCCC2
    1.0	-20	4.1	12	-2.0%	0
N/C(=N\OC(=O)c1ccc(Cl)c(Cl)c1)c1cccc(CSc2ccccn2)c1
    0.5	5	4.3	-7	4.1%	7
Cc1ccc(C(O)CSc2nnc(-c3ccc4ccccc4c3)n2C)cc1 (centres undefined)
    -0.5	3	-2.4	4	-0.7%	5
Cc1cccc(C)c1NC(=O)CSc1nnc(-c2cccnc2)o1
    0.2	17	-0.7	-1	-0.7%	20
CCN(CC)c1nc(-c2ccccc2)ncc1S(=O)(=O)c1ccc(C)cc1
    1.9	82	-2.9	17	0.5%	25
COc1ccc(CNC(=O)C(Cc2ccccc2)NS(=O)(=O)c2ccc3c(c2)CCN3C(C)=O)cc1 (centres undefined)
    1.4	20	·	·	2.1%	·
CC(C)OC(=O)CSc1nnc(-c2cnccn2)n1C
    0.6	-20	-2.4	8	0.3%	-2
O=[N+]([O-])/C(N=Nc1ccccc1)=N\Nc1ccccc1
    -0.2	-14	6.7	1	0.6%	0
CCN(CC)S(=O)(=O)c1ccc(C(=O)N2CC(=O)Nc3ccc(F)cc3C2c2ccccc2)cc1 (centres undefined)
    1.1	-16	·	·	-0.4%	·
COc1ccc(CN2C(=O)N(c3ccccc3)C(=O)C2CC(=O)Nc2ccccc2)cc1OC (centres undefined)
    -0.3	-5	-2.7	8	3.5%	0
Cc1nc2c(-c3ccccc3)c(C)nn2c(C)c1CCC(=O)NCc1ccc(F)cc1
    -1.1	-20	·	·	2.0%	·
